YopH PTP inh: YopH (Yersinia) phosphatase inhibition. fluorescence Ex485/Em525. inhibition, %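 (about 10 µM by stock and volumes)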. actives 0.16% (n = 140,000);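 active = inhibition of 50% or more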;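 note: controls were vehicle for no effect and minimum signal wells for full effect; inactives centre near -20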
Arbovirus inh: arbovirus infection inhibition; arbovirus infection cell-based antiviral screen; inhibition, % at 10 µM; actives 0.37% (n = 200,000); AID 1251;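 active = inhibition from about 30%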;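 note: bluetongue infection of BSR cells; cell survival read as ATP light after 72 h; 0% = infected wells without compound and 100% = uninfected wells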
Mtb betalactam: beta-lactam sensitization of Mtb H37Rv | inhibition, % at 25 µM | actives 0.27% (n = 330,000) | AID 434955 | M. tuberculosis H37Rv growth with meropenem, percent inhibition; hits of this screen are not shown here;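 active = about 74% or more and at least 40 points above the plate without the antibiotic, then above 30% in a dose series; inconclusive = first-round hits that could not be retested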;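 note: growth measured after seven days incubation then overnight dye step; 0% = bacteria only wells and 100% = bacteria with antibiotic; twin plates without the antibiotic show which effects depend on it; some results filed as inactive read as strong as hits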
Mtb H37Rv: M. tuberculosis H37Rv growth inhibitors, H37Rv strain (AID 1626) | M. tuberculosis H37Rv growth inhibition; higher % means a stronger effect | inhibition, % at 10 µM, or IC50 in µM where a hit was titrated | actives 0.95% (n = 220,000);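 active = confirmed in a dose series; inconclusive = inhibition above 80% but not taken into the dose series; inactive = below 80% or under 30% at every dose of the series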;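 note: bacteria incubated seven days before Alamar blue readout; 0% = bacteria only wells and 100% = bacteria with antibiotic wells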
RecA splice inh: inhibitors of M. tuberculosis RecA intein splicing; P9WHJ3; cell-free RecA intein splicing, fluorescence; inhibition, %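 (about 9 µM by stock and volumes)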; actives 0.75% (n = 290,000); in the data active = inhibition above about 30%; inconclusive = no clear call, values can overlap the other calls;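 note: 0% = vehicle wells and 100% = reference inhibitor control wells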
Target sequence (P9WHJ3 whole entry, looked up, canonical isoform): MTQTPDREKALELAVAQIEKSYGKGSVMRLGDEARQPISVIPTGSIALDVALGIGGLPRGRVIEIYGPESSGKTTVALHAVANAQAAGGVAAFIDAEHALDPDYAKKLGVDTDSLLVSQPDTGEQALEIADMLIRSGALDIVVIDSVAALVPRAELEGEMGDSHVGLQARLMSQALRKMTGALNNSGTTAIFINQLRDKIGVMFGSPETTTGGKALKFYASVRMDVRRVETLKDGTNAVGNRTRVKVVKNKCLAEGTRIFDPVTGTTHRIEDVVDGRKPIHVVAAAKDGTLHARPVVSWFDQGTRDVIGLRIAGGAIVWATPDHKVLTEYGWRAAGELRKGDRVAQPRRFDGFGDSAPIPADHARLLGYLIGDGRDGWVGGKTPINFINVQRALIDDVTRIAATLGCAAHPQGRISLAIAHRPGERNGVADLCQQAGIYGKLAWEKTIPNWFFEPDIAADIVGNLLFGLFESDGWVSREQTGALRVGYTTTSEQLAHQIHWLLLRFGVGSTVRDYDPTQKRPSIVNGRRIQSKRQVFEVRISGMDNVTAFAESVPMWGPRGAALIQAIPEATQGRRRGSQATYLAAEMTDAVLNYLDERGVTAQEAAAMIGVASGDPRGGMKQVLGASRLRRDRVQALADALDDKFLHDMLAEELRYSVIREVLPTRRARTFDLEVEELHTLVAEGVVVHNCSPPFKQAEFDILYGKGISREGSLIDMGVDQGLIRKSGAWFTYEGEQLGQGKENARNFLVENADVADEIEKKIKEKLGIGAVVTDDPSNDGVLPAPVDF
Arbovirus inh repeat: further read-out of Arbovirus inh, marked with its call; inhibition, %; measured here: 10K subset replicate screen; many hits read low in the repeat;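 first of two repeat runs on a subset; 0% = infected and 100% = uninfected wells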
* = called active by the depositor; ? = inconclusive; / = no result given.

SMILES	YopH PTP inh	Arbovirus inh	Mtb betalactam	Mtb H37Rv	RecA splice inh	others
Cc1ccc(/C=N/n2c(-c3ccc(Cl)cc3)n[nH]c2=S)s1	/	-11	-4	9%	/
CCOC(=O)c1c(C)cc(C)n2c1nc1ccccc12	-143	-2	5	-4%	-1.5
Cc1cc(C(=O)N2CCc3ccccc32)c2cc(F)ccc2n1	-38	1	-3	2%	1.7
O=C(CSc1nnnn1-c1ccccc1)Nc1ncc2c(n1)CC(c1ccccc1)CC2=O (centres undefined)	-15	-5	?	-3%	0.9
O=C(CSc1nc2ccc(Cl)cc2[nH]1)NCc1ccco1	-50	-7	-1	0%	3.5
CCOC(=O)/C=C1\SCC(=O)N1CC(=O)Nc1ccc(OC)c(OC)c1	-16	-2	-8	-7%	0.5
COc1cccc(/C=N\Nc2nncc(-c3ccccc3)n2)c1	-30	-4	-11	-3%	/
COc1cccc(CN2CC(C(=O)N(C)Cc3ccc(C)cc3)CCC2=O)c1 (centres undefined)	/	/	-1	/	1.5
Cc1ccc(C(C)C)c(OCc2nnc(SCC(=O)Nc3nccs3)n2C)c1	-36	-4	0	-5%	0.0
O=S(=O)(Cc1cccc(C(F)(F)F)c1)c1ncn[nH]1	/	5	1	-6%	-1.1

Random excerpt: 6 entries already listed.
SMILES	YopH PTP inh	Arbovirus inh	Mtb betalactam	Mtb H37Rv	RecA splice inh	others
Cc1ccc(C(C)C)c(OCc2nnc(SCC(=O)Nc3nccs3)n2C)c1	-36	-4	0	-5%	0.0
CCOC(=O)c1c(C)cc(C)n2c1nc1ccccc12	-143	-2	5	-4%	-1.5
Cc1cc(C(=O)N2CCc3ccccc32)c2cc(F)ccc2n1	-38	1	-3	2%	1.7
O=S(=O)(Cc1cccc(C(F)(F)F)c1)c1ncn[nH]1	/	5	1	-6%	-1.1
O=C(CSc1nc2ccc(Cl)cc2[nH]1)NCc1ccco1	-50	-7	-1	0%	3.5
CCOC(=O)/C=C1\SCC(=O)N1CC(=O)Nc1ccc(OC)c(OC)c1	-16	-2	-8	-7%	0.5

Next section
SMILES	YopH PTP inh	Arbovirus inh	Mtb betalactam	Mtb H37Rv	RecA splice inh	others
CC(C)c1c(C(=O)N/N=C/C2CC=CCC2)nnn1-c1nonc1N (centres undefined)	/	/	-3	/	-1.1
COC(=O)Cc1c(C)nc2nc(NCc3c(F)cccc3Cl)[nH]n2c1=O	-30	5	10	-10%	5.2
O=C(NC1CCN(Cc2ccccc2)CC1)C1CCN(S(=O)(=O)c2cccc3nsnc23)CC1	-48	2	-11	-11%	-0.6
COc1ccc(-c2cc(=O)n(-c3ccc([N+](=O)[O-])cc3)[nH]2)cc1	-25	5	1	-2%	90*
Cc1ccc(-c2cc(C#N)c(=O)n(Cc3c(Cl)cccc3Cl)c2)cc1	-15	-3	2	8%	-9.6
Cc1cccc(C(=O)O/N=C(\N)Cc2ccc([N+](=O)[O-])cc2)c1	-10	6	11	8%	0.2
Nc1c(Cl)ncnc1NCCc1ccc(O)cc1	/	/	-7	0%	1.4
COc1cc(/C=C(\C#N)c2nc3ccccc3[nH]2)cc(Br)c1OCc1ccccc1	-31	1	58	6%	-13
N#CC(Cc1ccccc1OC(F)F)c1nc2ccccc2[nH]1 (centres undefined)	-31	9	-2	1%	6.0
N=c1sccn1CC(=O)Nc1cc(S(=O)(=O)N2CCCCC2)ccc1Cl	/	/	-4	-6%	/
COc1ccc(S(=O)(=O)N2CCCC2C(=O)Nn2cnnc2)cc1 (centres undefined)	-44	6	3	0%	0.5
COc1ccc(OCCCc2c(C)n[nH]c2C)cc1	-39	6	73	/	-3.6
N#Cc1c(Nc2ccccc2)c(/C=N/N=C/c2ccccc2)c[nH]c1=O	-30	0	1	-4%	-1.0
CCOC(=O)c1nc(C)sc1-c1ccnn1S(=O)(=O)c1ccccc1C(F)(F)F	/	/	7	2%	-1.3
CCC(=O)NC(=S)Nc1ccc(NC(=O)c2ccc(Br)o2)cc1	/	3	97	79%	0.4
NNc1ccc(Cc2ccc(Cl)cc2Cl)nn1	/	-27	4	1%	-0.7
C#Cc1ccc([C@H]2C=C(C(=O)NCc3ccccc3)O[C@@H](OCC)[C@@H]2CCCO)cc1	/	-2	-2	1%	4.1
COCCNC(=O)c1ccc(N2CCCCC2)c(NS(=O)(=O)c2ccc(C)cc2)c1	-28	2	-4	-10%	/
CCN(CC)C(=O)c1ccc(NC(=O)Cn2nc(C)c3ccccc3c2=O)cc1	-37	-1	7	-2%	1.5
COc1ccc(CN(C)C(C)C(=O)Nc2ccc([N+](=O)[O-])cc2Cl)cc1OC (centres undefined)	9	14	-2	4%	0.5

Next part; the last six above are carried over.
SMILES	YopH PTP inh	Arbovirus inh	Mtb betalactam	Mtb H37Rv	RecA splice inh	others
CCC(=O)NC(=S)Nc1ccc(NC(=O)c2ccc(Br)o2)cc1	/	3	97	79%	0.4
NNc1ccc(Cc2ccc(Cl)cc2Cl)nn1	/	-27	4	1%	-0.7
C#Cc1ccc([C@H]2C=C(C(=O)NCc3ccccc3)O[C@@H](OCC)[C@@H]2CCCO)cc1	/	-2	-2	1%	4.1
COCCNC(=O)c1ccc(N2CCCCC2)c(NS(=O)(=O)c2ccc(C)cc2)c1	-28	2	-4	-10%	/
CCN(CC)C(=O)c1ccc(NC(=O)Cn2nc(C)c3ccccc3c2=O)cc1	-37	-1	7	-2%	1.5
COc1ccc(CN(C)C(C)C(=O)Nc2ccc([N+](=O)[O-])cc2Cl)cc1OC (centres undefined)	9	14	-2	4%	0.5
Cc1ccc2oc(=O)n(CCOc3ccccc3Cl)c2c1	-48	-1	0	16%	-3.8	Arbovirus inh repeat=0
CC(=O)c1ccc(NC(=O)CC(C)S(=O)(=O)c2ccc3c(c2)CCN3C(C)=O)cc1 (centres undefined)	/	/	-1	/	0.1
CNC(=O)c1ccc(S(=O)(=O)c2ccc(Cl)cc2)c(NC(C)=O)c1	/	/	-3	/	-1.2
Cc1ccc(NC2CCCN(C(=O)CCc3ccncc3)C2)cc1C (centres undefined)	/	/	2	/	-1.9
O=C(c1ccccc1)c1ccc2c(c1)OCCOCCOCCOCCO2	/	/	-5	-2%	-1.6
COc1ccc(/C(O)=C2/C(=O)C(=O)N(CCN(C)C)C2c2ccccc2)cc1Cl (centres undefined)	-43	0	-7	-3%	-1.1
CCC(=O)N(CC)c1nc(-c2ccc(OC)cc2)cs1	-29	-7	55	90%	2.3
O=C(NC1CCCC1)C(c1ccc(O)cc1)N(CC1CCCO1)C(=O)C1COc2ccccc2O1 (centres undefined)	-41	-10	-5	-5%	3.6
CNC(=S)N1CCn2cccc2C1c1cccnc1 (centres undefined)	/	7	6	-3%	-0.3
COc1ccc([N+](=O)[O-])cc1NC(=O)C(C)Sc1ccccc1 (centres undefined)	-20	-7	1	1%	-1.1
O=c1c2c(nc3cc(-c4ccccc4)[nH]n13)CCS2	-63	-2	25	/	-2.7
COC(=O)c1ccc2c(=O)n(CCCCCC(=O)NC(C)C)c(=O)[nH]c2c1	/	2	-1	/	-3.7
Cc1csc(SCC(=O)N(C)CC(=O)Nc2ccc(F)cc2)n1	/	-1	0	1%	0.4
O=C(Cc1cccs1)NNC(=S)NCc1ccco1	/	-3	-1	-8%	2.2
Nc1n[nH]c(N)c1N=Nc1ccc(Cl)cc1Cl	5	16	66	13%	10
COc1cc2c(cc1OC)C(C)N(C(=O)c1ccc(Br)o1)CC2 (centres undefined)	-18	-1	1	-5%	-3.4
Cc1cccc2sc(NNC(=O)c3cc(-c4cccs4)nc4ccccc34)nc12	-16	-29	2	/	-3.1
FC(F)(F)c1ccccc1/C=N/n1c(COc2ccccc2)n[nH]c1=S	/	/	?	/	4.8
CCN1CCc2c(C#N)c(N3CCOCC3)nc(NCCO)c2C1	-29	6	-9	5%	-46
Cc1ccc(CNC(=O)C(=O)NCC2CCCN2S(=O)(=O)c2cc(C)ccc2C)cc1 (centres undefined)	/	/	-7	/	-1.6
CN(C)CCCOc1cccc(Oc2ccccc2)c1	-6	-28	-3	-5%	-0.6
COc1ccc(NC(=O)CSc2nccn2-c2cccc(OC)c2)cc1	-40	0	-3	-1%	1.3
O=C(COC(=O)c1ccc(=O)n(Cc2ccccc2)n1)Nc1ccc2c(c1)OCCO2	-48	6	7	-4%	1.0
O=C(c1ccco1)N(Cc1ccccc1)c1cccc([N+](=O)[O-])c1	/	-6	-1	-4%	2.3
COC(=O)c1sc2ncccc2c1OCc1ccccc1Cl	-52	5	2	-6%	4.1
CCOC(=O)c1c(S(=O)(=O)NCC(=O)NCc2cccc(C)c2)c(C)n(C)c1C	/	/	-5	/	1.1
CCCc1nc2ccccc2c(=O)n1CC(=O)c1ccc(F)cc1	/	/	-6	/	-0.1
Cc1nnsc1SCC(=O)O	-29	2	-1	-10%	/
Cc1ccc(-n2c(CC#N)n[nH]c2=S)c(C)c1	/	/	-1	1%	-1.1
C=CCN(C/C(=N\O)c1sc(C(=O)OCC)nc1C)c1cccc(Br)c1	/	/	74	-3%	3.0
C=CCN1CCN(C(=O)CCc2ccccc2)CC1	/	/	3	/	0.2
COc1ccc2ccccc2c1C1NC(=O)NC(C)=C1[N+](=O)[O-] (centres undefined)	/	/	3	/	0.8
CCOC(=O)c1nc(S(C)(=O)=O)ncc1N1CCOCC1	-49	4	13	-5%	-3.3
COc1ccc(CNCCc2ccc(Cl)cc2)c(OC)c1OC	/	/	-6	/	1.5
C=CCN(C(=O)CNC(=O)c1ccco1)C(C(=O)NC1CCCC1)c1cccs1 (centres undefined)	/	9	2	-15%	1.2
C=CC(=C)CC(NC)c1ccccc1 (centres undefined)	-56	-5	?	4%	-2.4
Cn1c(=O)c2c(SCC(=O)NCCc3ccccc3)nc(C3CC3)nc2n(C)c1=O	/	/	-13	2%	0.0
COC(=O)c1ccccc1NC(=O)CN1CCC(C(=O)c2ccc3c(c2)OCCO3)CC1	-44	27	?	19%	4.3
CC(=O)O[C@]1(C(C)=O)CCC2C3CCC4=C/C(=N/OCC(=O)O)CC[C@]4(C)C3CC[C@@]21C (some centres undefined)	/	/	?	/	0.1
O=S1(=O)[C@H]2CC3O[C@]2(C[C@@H]3c2ccc(F)cc2)CN1Cc1ccc(Cl)cc1	/	/	-6	-12%	3.9
O=C(c1ccncc1)N1CCCC(N2CCN(c3cccc(C(F)(F)F)c3)CC2)C1 (centres undefined)	/	/	-9	/	-3.0
C#CC1(O)C=CC2C3CCC4=CC(=O)CCC4C3CCC21CC (centres undefined)	/	/	2	/	5.2
COc1ccc(OCC(=O)N/N=C2\CCCc3ccccc32)cc1	-30	-5	9	2%	0.8
O=C(NCC1CC1)C1(C(F)(F)F)CC(CCCO)CCCO1 (centres undefined)	/	/	-3	4%	-1.3
Cc1cc(Br)ccc1N=C1C(=O)Nc2ccccc21	/	/	-3	/	2.6
CCc1ccccc1N(C)C(=O)CCc1nc(-c2ccc(C)cc2)no1	-56	-10	-1	12%	17
Cc1ccccc1N=Cc1cc2c(cc1O)OC(N)=C(C#N)C2c1ccccc1 (centres undefined)	9	-10	3	-7%	-17
CCCNC(=O)COC(=O)/C=C/c1ccc2c(c1)OCO2	-31	-7	5	10%	-1.2
CN(C)CCNC(=S)Nc1ccc(-c2nc3ccccc3[nH]2)cc1	/	-6	-6	-2%	-1.6
CCOc1ccc(CCNC(=O)c2ccc(C)c(NC3=NC4CS(=O)(=O)CC4S3)c2)cc1 (centres undefined)	/	/	-1	/	-1.9

(next part)
SMILES	YopH PTP inh	Arbovirus inh	Mtb betalactam	Mtb H37Rv	RecA splice inh	others
CCN(CC)S(=O)(=O)c1cccc(NC(=O)COC(=O)CNC(=O)c2cccc(F)c2)c1	/	/	3	-4%	-0.4
NS(=O)(=O)c1ccc(N2C(=O)C3CC=CCC3C2=O)cc1 (centres undefined)	/	-4	-5	1%	/
Cn1c(-c2ccc3c(c2)OCO3)cnc1NCc1cccc(O)c1	/	-9	-4	-2%	-1.9
CCCc1nc2ccccc2c(=O)n1/N=C/c1ccc(O)c(O)c1	-18	-32	4	-4%	-4.5
O=C(CCc1ccc(S(=O)(=O)N2CCOCC2)cc1)NCCCN1CCCC1=O	-46	-1	-6	-12%	-1.2

High-throughput results as filed in PubChem BioAssay.

A portion of the library; the hit share may differ from the screen's.
